Beta apoptosis: beta cell apoptosis inhibition; INS-1E cytokine-induced death, ATP luminescence, 48 h; percent of positive-control rescue, neutral wells zero; actives 0.8% (n = 300,000); protection from apoptosis, % (test concentration not listed);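 active means all replicates at 75% or more, or half of them and the mean; inconclusive means half reach 75% but not the mean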;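 further: 0% = cytokine-treated negative control wells and 100% = positive control rescue; higher means more ATP so stronger rescue from cytokine killing; wells of about 40 µL received 100 nL stock; the first replicate is given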
Beta2AR agonist: agonists of human beta-2 adrenergic receptor inducing internalization; Am2.2-beta2AR cells, FAP receptor internalization, flow cytometry; reference of the scale not given here; response, % (concentration not given with the values); actives 0.43% (n = 340,000);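 active means response above a set limit, near 3 SD of response in nonfluorescent compounds, cut at about 42% in these data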;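 further: stock transfer was 100 nL into about 11 µL; a reference agonist was the positive control; negative values mostly stem from fluorescent compounds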
Target sequence (P07550 whole entry, looked up): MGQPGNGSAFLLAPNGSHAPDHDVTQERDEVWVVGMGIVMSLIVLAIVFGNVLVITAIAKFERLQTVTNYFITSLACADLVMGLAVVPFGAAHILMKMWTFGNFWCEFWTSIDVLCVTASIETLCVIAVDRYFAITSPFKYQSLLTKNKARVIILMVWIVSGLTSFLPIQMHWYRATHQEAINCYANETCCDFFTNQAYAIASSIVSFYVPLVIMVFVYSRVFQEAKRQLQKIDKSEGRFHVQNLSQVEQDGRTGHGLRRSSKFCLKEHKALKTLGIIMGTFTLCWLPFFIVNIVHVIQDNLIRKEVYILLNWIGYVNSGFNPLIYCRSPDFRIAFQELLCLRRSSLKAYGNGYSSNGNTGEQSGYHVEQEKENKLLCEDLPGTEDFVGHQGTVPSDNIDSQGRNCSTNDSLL
UCH37 inh: inhibitors of human deubiquitinating enzyme UCH37; inhibition, % (concentration not given with the values); purified proteasome/UCH37, Ub-AMC cleavage fluorescence; actives 0.33% (n = 330,000); AID 588478;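 active means mean of two replicates above 20%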;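 further: 0% = compound-free wells with enzyme and 100% = wells lacking proteasome; stock transfer was 100 nL into about 20 µL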
Target sequence (Q9Y5K5 whole entry, looked up): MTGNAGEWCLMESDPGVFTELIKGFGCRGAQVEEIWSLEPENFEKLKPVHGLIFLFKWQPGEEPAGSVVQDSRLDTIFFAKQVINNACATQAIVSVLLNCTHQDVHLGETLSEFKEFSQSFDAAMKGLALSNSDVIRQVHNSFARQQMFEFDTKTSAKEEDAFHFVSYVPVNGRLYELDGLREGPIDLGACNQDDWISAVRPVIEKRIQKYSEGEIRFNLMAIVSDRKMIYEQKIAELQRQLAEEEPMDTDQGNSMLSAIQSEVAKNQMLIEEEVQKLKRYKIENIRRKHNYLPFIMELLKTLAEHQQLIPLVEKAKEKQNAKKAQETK
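System: Proteasome-associated human UCH37 deubiquitinase; Input: 0.15 nM proteasome in added enzyme buffer; Also added: Ub-AMC substrate from 1 µM stock; Incubation: 30 min compound-proteasome preincubation then 25 min substrate reaction, room temperature; Detection: fluorescence, ex 355 nm, em 460 nm; Read-out: % inhibition of Ub-AMC cleavage fluorescence; Benchmarks: no-proteasome and no-compound wells.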
T cruzi inh: T. cruzi replication inhibition. AID 1885. actives 1.4% (n = 300,000). inhibition, % (no concentration beside the values). T. cruzi beta-gal in NIH3T3, luminescence, 90 h;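 active means mean inhibition across valid replicates above about 55%, limit read from the data; inconclusive means mean below that limit but half or more replicates reach it; inactive means mean below it, under half of replicates reach it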;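 further: signal also drops with host cell toxicity which is not excluded here; 0% = plate median of DMSO wells and 100% = zero luminescence signal; higher percent means less beta-gal luminescence so fewer parasites; stock transfer was 50 nL into about 50 µL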
RanGTP-Imp inh: inhibitors of RanGTP-importin-beta interaction, primary screen, biochemical, FRET, CFP-Ran, YFP-importin-beta, homogeneous; cell-free CFP-Ran/YFP-importin-beta FRET ratio; inhibition, % (test concentration not listed); actives 1.1% (n = 300,000); AID 2216;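 active means most replicates above 15%; inconclusive means exactly half above 15%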;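 further: 0% = DMSO wells and 100% = Ran loaded with GDP instead of GTP; wells of about 40 µL received 100 nL stock; the first replicate is given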
A1 inh: inhibitors of the anti-apoptotic protein A1, read as caspase activation; MEF A1-2A-BIM cells, Caspase-Glo 3/7 luminescence, 3 h; percent of clofoctol response, vehicle zero; caspase activation, % (concentration not given with the values); actives 0.066% (n = 330,000);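 active means over half of replicate activation scores above 10%, or exactly half above 10 with the replicate mean above 10; inconclusive means replicate mean below 10 yet half the replicates above 10; inactive means over half of replicates below 10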;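 further: wells of about 30 µL received 50 nL stock; many hits fall short of the cut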
LANA-H2A inh: blocks KSHV LANA binding to histone H2A/H2B; cell-free LANA-H2A/H2B peptide, fluorescence polarization; inhibition, % (test concentration not listed); actives 0.6% (n = 320,000); AID 2629; in the data active means inhibition mostly above about 10%, no sharp cut-off; inactive means mostly below about 6.7%;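 further: stock transfer was 7.5 nL into about 10 µL; 0% = median of vehicle wells and 100% = median of positive control wells; one replicate is shown; the record names a cut of 25% in any replicate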
Calb FLC: affects C. albicans growth with fluconazole; C. albicans CaCi-2 (fluconazole-resistant clinical isolate) + fluconazole, Alamar Blue growth, 48 h; growth inhibition, % (concentration not given with the values); actives 0.57% (n = 300,000);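 active means most replicates above 75%; inconclusive means exactly half above 75%; inactive means most below 75%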;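 further: all wells also contain fluconazole at 8 µg/ml as a sub-toxic cotreatment; 0% = median of DMSO wells and 100% = median of geldanamycin control wells; wells of about 8 µL received 7.5 nL stock; the first replicate is given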
* marks the source's active call; other numbers are inactive results; i = inactive; ? = inconclusive; / = no result given.

canonical_smiles | Beta apoptosis | Beta2AR agonist | UCH37 inh | T cruzi inh | RanGTP-Imp inh | A1 inh | LANA-H2A inh | Calb FLC
COc1ccc(C(=O)/C(=C/N(C)C)S(=O)(=O)c2ccccc2)cc1 | -1 | -5 | 6.9 | 17 | -1.1 | 0.1 | 1.9 | -25
COC(=O)c1[nH]c2ccc(C)cc2c1NC(=O)Nc1ccc(OC)cc1 | 5 | 7 | -7.7 | -4 | 3.7 | 0.5 | 0.3 | -2
Cc1ccc(SCC(=O)OCC(=O)N2CCN(C(=O)c3ccco3)CC2)c(C)c1 | -1 | 4 | 1.9 | -26 | / | -0.5 | -1.1 | 12
O=C(NCc1ccco1)c1ccc2snnc2c1 | -16 | 6 | 1.9 | 8 | -0.1 | 1.4 | 0.8 | -11
c1ccc(COc2ccc(OCCCCN3CCCC3)cc2)cc1 | 5 | -7 | 1.2 | 40 | 1.5 | -0.3 | 1.9 | ?
C=CCOC(=O)C1=C(C)Nc2nnnn2C1c1cccs1 (configuration not stated) | -2 | -3 | -0.1 | -11 | 6.1 | -0.1 | -1.1 | 1
CCCn1c2c(c(O)c(C(=O)NC)c1=O)CCCC2 | 1 | 13 | 2.5 | -2 | -4.4 | 0.1 | -0.6 | 9
CCNC(=S)N/N=C(\C)c1cc2ccccc2o1 | 2 | 0 | / | 2 | -1.7 | -0.1 | -5.8 | -4
COCCNC(=O)CN1CCC(NC(=O)C(C)(C)C)CC1 | -6 | 0 | 2.4 | -16 | 1.0 | -0.5 | 0.1 | 18
CCSc1nc2ccccc2n1C(=O)Oc1ccccc1 | -4 | -2 | 0.1 | -8 | -4.3 | 0.0 | 1.8 | 0
COc1ccc(-n2c(COc3ccc(C)cc3)nnc2SCC(N)=O)cc1 | / | -8 | 1.3 | -14 | 0.2 | -0.4 | -1.2 | 2
CSc1ncccc1C(=O)Nc1cc(C)ccn1 | -1 | -2 | 0.3 | -22 | -1.2 | -3.6 | -5.9 | -5
Cc1nn(Cc2ccc(C(=O)N3N=C(C(F)F)CC3(O)C(F)F)cc2)c(C)c1[N+](=O)[O-] (configuration not stated) | -2 | -5 | 3.6 | -16 | 0.4 | 1.1 | 1.1 | -19
COc1ccc(C(=O)NNC(=O)C2CCCN(C3CC(=O)N(c4ccccc4)C3=O)C2)cc1 (configuration not stated) | / | 8 | 5.5 | -13 | -4.9 | 0.1 | 3.6 | -4
Cc1ccc(Cl)cc1N1CCN(C(=O)c2ccc(NC3=NC4CS(=O)(=O)CC4S3)cc2)CC1 (configuration not stated) | -6 | 2 | 2.5 | -8 | -2.8 | 0.2 | 8.6 | -7
CCOc1ccccc1NC(=O)Cn1c(C)cc(COC)c(C#N)c1=O | / | -3 | -2.0 | 3 | 1.5 | 1.1 | 0.0 | -2
Cc1cc(NC(=O)COc2ccccc2C(N)=O)no1 | 2 | -5 | -0.1 | / | / | -2.7 | 2.3 | /
O=C(CCNS(=O)(=O)c1ccccc1)OCC(=O)c1ccc[nH]1 | -2 | -2 | -2.9 | -3 | 3.1 | 1.2 | -0.2 | /
O=C1CCCc2c1nc(-c1ccccc1F)n2O | -4 | 1 | -6.1 | 11 | 1.2 | -0.4 | 1.4 | -14
Cc1ccc(-n2c(C)c(C)c3c(NCCN(C)C)ncnc32)cc1 | 4 | 2 | 8.0 | 43 | -6.0 | -0.5 | -4.2 | -3
O=C1C2C(C(=O)N1/N=C/c1ccc([N+](=O)[O-])o1)C1C=CC2C12CC2 (configuration not stated) | -5 | -10 | / | 15 | -2.3 | -0.3 | 2.9 | ?
O=C(N[C@@H](Cc1ccccc1)C(=O)OCc1ccccc1)c1nc[nH]c1C(=O)N1CCNCC1 | -4 | -3 | 0.1 | / | / | 0.4 | 5.3 | /
CCN1CCN(C(C)C(=O)Nc2c(C)n(C)n(-c3ccccc3)c2=O)CC1 (configuration not stated) | -3 | -3 | -1.0 | -2 | 1.4 | 0.0 | 0.6 | /
O=C(Cn1cnc2ccccc2c1=O)NCCC(=O)Nc1ccc2c(c1)OCCO2 | -4 | 7 | 0.2 | 6 | ? | -0.4 | -3.5 | -2
NNC(=O)c1ccc(COc2ccc3c(c2)CCC3)o1 | / | -7 | -1.1 | 16 | -1.0 | 0.3 | 2.0 | -23
C/C(=N/NS(=O)(=O)c1ccc(F)cc1)c1ccc(NC(=O)c2ccc(C)o2)cc1 | 7 | 0 | / | 5 | 2.3 | -2.5 | 3.6 | -11
CCCn1c(N)c(C(=O)CSc2ncc(C(F)(F)F)cc2Cl)c(=O)[nH]c1=O | 12 | -10 | 0.2 | 6 | 6.2 | 0.2 | -9.5 | -9
CCOC(=O)CN=C/C(C(C)=O)=C(/C)O | -3 | 1 | 0.1 | -7 | 63* | 1.2 | -1.4 | -6
Cc1nnc(NC(=O)CCSCCC(=O)Nc2nnc(C)s2)s1 | -11 | -7 | -3.5 | 2 | -2.8 | 1.1 | -5.0 | 0
CC(C)(C)c1ccc(C2(C)NC(=O)N(CC(=O)NCc3cccs3)C2=O)cc1 (configuration not stated) | 0 | -6 | 2.6 | 10 | 7.2 | 0.3 | -0.6 | -18
Cc1cccc(C)c1OCC(=O)NC(Cc1c[nH]c2ccccc12)C(=O)O (configuration not stated) | 1 | -5 | 1.6 | -2 | -1.9 | -1.1 | -0.7 | 0
COc1ccc(C(=O)c2ccccc2)cc1Br | 2 | -6 | 4.5 | -17 | 0.8 | 0.3 | 6.3 | -4
Cc1ccc(NC(=O)c2noc3c2CCCCC3)cc1C | -7 | 0 | -1.4 | 9 | 4.1 | -5.5 | 2.5 | -14
CCN(CC)c1ccc(/C=N/NC(=O)c2ccco2)cc1 | -3 | -3 | / | -2 | 2.7 | -5.6 | -5.6 | -24
CC(C)C(=O)N1CCN(c2ccc(NC(=O)c3ccco3)cc2Cl)CC1 | 3 | -1 | 1.8 | -13 | -1.0 | 0.2 | 5.0 | 15
Cc1nn(C(=O)c2nn(C)cc2[N+](=O)[O-])c(C)c1Cl | -12 | -4 | 3.3 | -4 | 4.2 | 0.9 | 0.3 | -1
COc1ccc(OCCNc2cc(N3CCOCC3)ccc2[N+](=O)[O-])cc1 | 1 | -9 | 1.3 | -1 | -10 | 0.6 | 1.5 | 18
CN(CCCNC(=O)c1ccccc1F)CCCNC(=O)c1ccccc1F | -6 | -4 | 0.5 | 30 | -4.4 | -0.3 | 7.4 | -4
COc1ccc(SCCN2CCN(C)CCC2=O)cc1 | / | -1 | 1.7 | 7 | -1.0 | / | / | -15
CN(C(=O)CSc1nncc2ccccc12)c1ccccc1 | 2 | / | 2.1 | / | / | -0.3 | 3.2 | /
COc1ccccc1NCCC(=O)OCC(=O)NC1CCCCC1 | / | -2 | -0.5 | -11 | -1.0 | 0.4 | 2.6 | 7
O=S(=O)(Nc1cccc(S(=O)(=O)N2CCOCC2)c1)c1cccs1 | -13 | -1 | 1.2 | 0 | / | 0.1 | 2.1 | /
O=C(O)COc1ccc(-c2nnn(CC(=O)O)n2)cc1 | 0 | 5 | 0.7 | -7 | 6.1 | 0.9 | -0.5 | 0
Cc1c(NC(=O)C2CC(c3c(F)cccc3Cl)=NO2)c(=O)n(-c2ccccc2)n1C (configuration not stated) | / | -8 | 4.5 | 7 | -0.7 | -0.3 | 0.5 | -17
O=C(/C=C/c1ccc(F)cc1)Nc1ccc(S(=O)(=O)Nc2ncccn2)cc1 | 0 | -2 | 5.1 | 8 | -1.0 | 0.0 | -5.1 | 4
Cc1c(Cl)cccc1NC(=O)CSc1nc2ncc(Cl)cc2[nH]1 | 20 | 1 | 2.4 | -27 | 0.4 | -0.2 | -1.5 | 3
CN(CCOc1ccc(Br)cc1)CC(O)c1ccccc1 (configuration not stated) | -2 | 2 | 5.1 | 70* | 3.6 | -0.9 | 4.5 | -3
CC(C)CN(C(=O)COC(=O)c1cnccn1)c1c(N)n(Cc2ccccc2)c(=O)[nH]c1=O | / | 1 | 1.1 | 3 | 0.6 | -0.5 | 3.3 | -4
CC(C)CN(C(=O)CSc1nnnn1C)C1CCS(=O)(=O)C1 (configuration not stated) | 0 | -9 | -0.8 | -3 | 0.4 | -0.7 | 2.4 | 1
Cc1cc(NC(=O)c2ccc(NC(=O)C(C)C)cc2)no1 | 3 | -9 | -1.3 | -1 | 0.9 | -0.6 | -1.9 | 2

Reformatted field by field: part of the list above
COc1ccccc1NCCC(=O)OCC(=O)NC1CCCCC1
  Beta apoptosis: /	Beta2AR agonist: -2	UCH37 inh: -0.5	T cruzi inh: -11	RanGTP-Imp inh: -1.0	A1 inh: 0.4	LANA-H2A inh: 2.6	Calb FLC: 7

O=S(=O)(Nc1cccc(S(=O)(=O)N2CCOCC2)c1)c1cccs1
  Beta apoptosis: -13	Beta2AR agonist: -1	UCH37 inh: 1.2	T cruzi inh: 0	RanGTP-Imp inh: /	A1 inh: 0.1	LANA-H2A inh: 2.1	Calb FLC: /

Given with two lines to a compound: entries from further up.
Values in the order: Beta apoptosis, Beta2AR agonist, UCH37 inh, T cruzi inh, RanGTP-Imp inh, A1 inh, LANA-H2A inh, Calb FLC
O=C(Cn1cnc2ccccc2c1=O)NCCC(=O)Nc1ccc2c(c1)OCCO2
    -4, 7, 0.2, 6, ?, -0.4, -3.5, -2
NNC(=O)c1ccc(COc2ccc3c(c2)CCC3)o1
    /, -7, -1.1, 16, -1.0, 0.3, 2.0, -23

Next part:
canonical_smiles | Beta apoptosis | Beta2AR agonist | UCH37 inh | T cruzi inh | RanGTP-Imp inh | A1 inh | LANA-H2A inh | Calb FLC
C=CCn1cc(/C=C/c2cc[n+](C)cc2)c2ccccc21 | 80* | i | 22* | 55* | -358 | 0.5 | -209 | 71
O=C(N/N=C/c1ccco1)C1CC1c1ccccc1 (configuration not stated) | 0 | 4 | / | -4 | -0.1 | -1.3 | 0.3 | -6
O=C(Nc1ccc(S(=O)(=O)Nc2ncccn2)cc1)C1=COCCO1 | 0 | 12 | / | -12 | 2.1 | 0.4 | 0.3 | 7
Cc1ccc(NC(=O)c2ccc(CN3CCc4ccccc4C3)cc2)cc1 | -3 | 0 | 22* | 1 | ? | -1.8 | -1.3 | -7
CCC(C)(C)NS(=O)(=O)c1cc(CN2C(=O)c3cccnc3C2=O)ccc1OC | -3 | -20 | 0.9 | -11 | 3.2 | -0.4 | 3.7 | -1
Cc1cc(C)n(CCC(=O)N2CCc3ccccc32)n1 | -2 | 0 | 0.9 | -6 | 1.7 | 0.4 | 0.6 | 14
Cc1ccc(NC(=O)NCc2ccc3[nH]c(C)cc3c2)cc1 | 1 | 11 | 1.3 | 7 | 2.5 | -0.2 | 3.3 | -4
CC(=O)NC(Cc1cccc(F)c1)C(=O)NC1CCN(C(=O)c2ccc(C)cc2)CC1 (configuration not stated) | -2 | -1 | 1.4 | -3 | -0.2 | -0.3 | -1.0 | 15
O=C1Nc2cc(C(=O)N3CCc4ccccc4C3)ccc2S/C1=C\c1ccccc1 | 2 | -6 | -5.9 | 10 | -1.7 | -0.6 | -7.2 | 0
O=C(NCCO)c1ccc2[nH]c3c(c2c1)CCCC3 | / | -5 | -0.5 | -4 | 18* | -0.1 | -2.1 | 5

From PubChem
